GIV Gai3 FP: inhibitors of GIV GBA-motif binding to rat Galpha-i3. percent of control (FP), % (no concentration beside the values). P08753. AID 1224905. Galpha-i3/FITC-GIV peptide fluorescence polarization, 90 min; hits give low values; scaled: aluminum fluoride 0%, vehicle 100%. 0.42% of 210,000 active;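 active = replicate mean at 85% of control or lower, very high polarization wells dropped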;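 also: wells of about 15 µL received 100 nL stock; the first replicate is given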
Target sequence (P08753 whole entry, looked up): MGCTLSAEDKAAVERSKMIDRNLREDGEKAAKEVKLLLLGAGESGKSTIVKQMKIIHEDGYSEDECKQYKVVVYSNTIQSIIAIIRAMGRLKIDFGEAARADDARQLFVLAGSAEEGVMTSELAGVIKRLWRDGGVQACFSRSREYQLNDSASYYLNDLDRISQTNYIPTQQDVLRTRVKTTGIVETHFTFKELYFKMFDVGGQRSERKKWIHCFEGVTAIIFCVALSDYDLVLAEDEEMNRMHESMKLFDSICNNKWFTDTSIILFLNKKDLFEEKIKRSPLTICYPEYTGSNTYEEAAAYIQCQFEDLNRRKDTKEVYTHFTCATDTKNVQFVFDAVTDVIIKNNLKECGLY
HCMV UL50-53 inh: inhibitors of HCMV UL50-UL53 nuclear egress complex interaction | HTRF UL50-UL53 interaction, normalized percent inhibition | inhibition, % (concentration not given with the values) | 0.15% of 190,000 active | AID 1918969;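 active = both replicates at 50% or more, plus weaker picks with an unusually low signal ratio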;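 also: stock transfer was 100 nL into about 20 µL; 0% = negative control wells and 100% = wells with untagged competitor protein; inactives centre near -12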
Sa growth inh: inhibitors of Staphylococcus aureus growth at 42 °C; relative growth, % (no concentration beside the values); S. aureus RN4220 growth, OD600, 20 h; hits give low values; 0.53% of 170,000 active;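 active = growth at 42 °C up to 50% and 20 or more points under that at 30 °C, or under 10% at both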;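 also: 300 nL library stock went into each well; scaled to the means of positive and negative controls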
Sa growth inh second temp: further read-out of Sa growth inh, marked with its call; relative growth, %; measured here: growth at 30 °C;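 optical density after 20 h as mean of two plates; 100% = untreated growth and lower means inhibition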
Active calls of the source: *; / = not tested or not shown; & = joins results of further samples.

1. COc1ccc2cc3cc(C(=O)NCCN(C)C)oc3nc2c1
2. O=C(Cn1cc(-c2ccccc2)c2ncnc(N3CCCCC3)c21)Nc1ccccc1
3. O=C(COc1ccc2oc3ccccc3c2c1)NCCc1ccccn1
4. CCN1CC(O)=C(c2ccccc2)C1=N
5. CCc1ccc(C(=O)NC2=NC(c3ccccc3F)CC(=O)N2)cc1 (stereo not given)
compound no.,1,2,3,4,5
GIV Gai3 FP,106.9,105.0,/,104.8,99.7
HCMV UL50-53 inh,/,-40.7,-10.3,-13.8,-4.9
Sa growth inh,73.9,/,93.0,98.7,95.2
Sa growth inh second temp,83.7,/,101.3,102.7,109.2

6. O=c1c(S(=O)(=O)c2cccc(F)c2)c[nH]c2c(F)ccc(Cl)c12
7. CN(C)c1ccc(CN(CC2CCCO2)C(=O)COc2ccccc2)cc1 (stereo not given)
8. COC(=O)c1c(SC)[nH]c2ccccc2c1=O
9. CCC(=O)N1CCc2cc(S(=O)(=O)N(CC)CC)ccc21
10. Oc1c(C(Nc2ccccn2)c2ccccc2)ccc2cccnc12 (stereo not given)
compound no.,6,7,8,9,10
GIV Gai3 FP,105.6,103.9&104.2,98.8,100.3,/
HCMV UL50-53 inh,-7.4,-16.8&-15.3,-15.3,/,-38.1
Sa growth inh,/,88.3,81.5,92.8,91.0
Sa growth inh second temp,/,82.8,79.5,83.8,69.3

11. O=c1[nH]c2c(oc3ccc(Cl)cc32)c(=O)n1-c1ccccc1
12. CC(=O)NC(C)Cc1c(C(=O)O)[nH]c2ccccc12 (stereo not given)
13. COc1ccc(CC(CC(=O)O)C(=O)NCc2ccccc2)cc1 (stereo not given)
14. COc1ccc(Cl)cc1S(=O)(=O)Nc1cccc(-c2ccc(N3CCOCC3)nn2)c1
15. COc1ccc(-c2ccc(=O)n(CC(=O)Nc3cc(OC)ccc3OC)n2)cc1
compound no.,11,12,13,14,15
GIV Gai3 FP,101.1,99.2,100.5,102.5&100.0,100.3
HCMV UL50-53 inh,-15.9,-8.7,-20.0,-19.7,/
Sa growth inh,89.7,94.8,110.2,91.8,126.4
Sa growth inh second temp,78.3,87.7,97.5,98.5,84.0

16. O=C(Nc1c(C(=O)N2CCN(Cc3ccccc3)CC2)oc2ccccc12)c1ccccc1
17. CC(=O)N1CCC(=NNC(=O)c2cccc(S(=O)(=O)Nc3ccccc3Cl)c2)CC1
18. CSc1nc(SC)c2c3c(sc2n1)CN(C)CC3
19. CCOc1ccc(-c2c(C)nn3c(C)c(C(=O)NC4CCC(C)CC4)cnc23)cc1OCC (stereo not given)
20. CCc1ccc2occ(CC(=O)Nc3ccc(F)cc3)c2c1
compound no.,16,17,18,19,20
GIV Gai3 FP,103.4,/,139.1,105.9,102.3
HCMV UL50-53 inh,2.6,-22.4,-25.9,-32.8,-3.0
Sa growth inh,94.8,84.9,90.9,/,104.2
Sa growth inh second temp,104.8,91.6,80.4,/,93.9

21. Cc1cccc(/C=C2\Sc3ccc(C(=O)NC(C)C)cc3N(C)C2=O)c1
22. CCOC(=O)C1=C(N)OC2=C(C(=O)CC(C)(C)C2)C1C1CCCCC1 (stereo not given)
23. O=S(=O)(c1ccccc1)n1cnc2ccccc21
24. O=C(OCc1nc2ccsc2c(=O)[nH]1)c1ccc(N2CCCC2=O)cc1
25. CCCN(CCC)C(=O)Cn1c(=O)n(-c2ccc(CC)cc2)c(=O)c2c3c(sc21)CCC3
compound no.,21,22,23,24,25
GIV Gai3 FP,102.1,103.6,102.4,/,111.3
HCMV UL50-53 inh,/,-35.4,-5.8,-10.0,-1.2
Sa growth inh,99.3,/,107.3,85.8,91.1
Sa growth inh second temp,50.9,/,102.9,85.5,94.4

26. CC1CN(C(=O)COC(=O)c2ccc(NC(=O)CC#N)cc2)CC(C)O1 (stereo not given)
27. COc1ccc(NC(=O)Cn2ccn(Cc3ccccc3)c(=O)c2=O)cc1Cl
28. CN(CCOc1ccccc1)c1ccc(S(=O)(=O)N2CCCCC2)cn1
29. CC1CCCCN1CCNC(=O)CCc1nnc2n(Cc3ccc(F)cc3)c(=O)c3ccccc3n12 (stereo not given)
30. O=C(OCN1C(=O)c2ccccc2C1=O)c1ccc(Cl)cc1
compound no.,26,27,28,29,30
GIV Gai3 FP,/,95.2,/,100.2,107.0
HCMV UL50-53 inh,-24.2,-2.7,-24.1,/,-9.1
Sa growth inh,87.4,104.7,81.8,89.2,111.0
Sa growth inh second temp,82.9,101.2,91.7,93.5,101.5

31. CCN(CC)CCn1c(NCc2ccc(OC)cc2)nc2ccccc21
32. Cc1cccn2c(=O)c(C=Nc3ccc(Cl)cc3)c(Sc3ccccc3)nc12
33. O=C(Nc1ccccc1-c1nc2ccccc2[nH]1)c1ccc(F)cc1F
34. Cc1ccc2occ(C(=O)c3ccccc3Cl)c(=O)c2c1
35. Cc1cccc(NC(=O)c2ccc(-n3cnc4cccnc43)cc2)c1C
compound no.,31,32,33,34,35
GIV Gai3 FP,102.2,/,/,95.3,106.6
HCMV UL50-53 inh,-13.2,-26.4,-20.4,0.2,/
Sa growth inh,/,100.0,88.5,56.9,100.4
Sa growth inh second temp,/,71.7,86.1,56.7,92.0

36. O=S(=O)(c1c(F)cccc1F)N1CCCC2CCCCC21 (stereo not given)
37. COCCNC(=S)N1CCCC(CO)C1 (stereo not given)
38. COc1ccc(NC(=O)C2CC(=O)N(c3cccc(-c4noc(C)n4)c3)C2)cc1 (stereo not given)
39. O=C1NC(=O)C(c2ccccc2[N+](=O)[O-])=C1Nc1ccc(O)c(Cl)c1
40. Cc1c(N)n[nH]c1-c1cccs1
compound no.,36,37,38,39,40
GIV Gai3 FP,/,106.5,103.2,93.8,101.6
HCMV UL50-53 inh,-26.4,8.4,-25.0,-31.3&-55.0&-60.8&-62.4,-3.8
Sa growth inh,97.3,99.0,/,/,102.0
Sa growth inh second temp,66.0,101.1,/,/,77.5

41. CN1CCN(C(=S)SCc2nc(N)nc(Nc3ccccc3)n2)CC1
42. Cc1ccc(-c2cc(NC(=O)c3ccccc3Cl)on2)cc1
43. Cc1cc(C)c(C(N)=O)c(N2CCN(c3ccccc3)CC2)n1
44. CSc1ncc(C(=O)O)cn1
45. Cc1ccc(OC(C)C(=O)Nc2nonc2-c2ccc(Cl)cc2)cc1C (stereo not given)
compound no.,41,42,43,44,45
GIV Gai3 FP,103.0,101.8,/,103.5,105.2
HCMV UL50-53 inh,-29.1,-21.5,-6.7,-19.6,-12.4
Sa growth inh,91.5,104.9,87.9,104.0,94.1
Sa growth inh second temp,81.3,89.6,82.8,91.8,90.3

46. Cc1cccc(OCCSc2nc3ccccc3n2CC(=O)N2CCOCC2)c1
47. CCCCOc1ccccc1C(=O)N(Cc1ccco1)Cc1sccc1C
48. O=C(Nc1ccccc1C(F)(F)F)N1CCOc2ccc(Cl)cc21
49. Cc1ccc(C2c3c(oc4ccccc4c3=O)C(=O)N2c2nnc(C)s2)cc1 (stereo not given)
50. Nc1nc(C2CC2)[nH]c(=O)n1
compound no.,46,47,48,49,50
GIV Gai3 FP,100.9,101.8,104.2,100.4,109.5
HCMV UL50-53 inh,-17.7,-13.1,-3.3,/,-2.3
Sa growth inh,103.7,57.3,88.5,112.6,102.2
Sa growth inh second temp,86.0,44.6,90.8,85.0,90.8

51. CCN(C(=O)Cc1c(C(=O)O)c(C)cn1C)c1cccc(Cl)c1
52. Cc1ccc(-c2nc(CS(=O)CC(=O)Nc3c(C)cccc3C)c(C)o2)cc1 (stereo not given)
53. CCc1ccc(-c2nn(-c3ccccc3)cc2/C=C\C(=O)O)cc1
54. N#CC(C(=O)c1ccco1)=C1SCCCS1
55. Cc1cc(C)n(CCc2nc3c4ccccc4n(Cc4ccc(F)cc4)c(=O)n3n2)n1
compound no.,51,52,53,54,55
GIV Gai3 FP,100.5,96.1,/,107.5,105.8
HCMV UL50-53 inh,/,-19.1,-69.1,-167.4,3.1
Sa growth inh,104.2,92.6,80.7,91.8,90.4
Sa growth inh second temp,88.7,85.0,36.1,78.9,87.9

56. Cc1cccc2nc(-c3ccccn3)c(Nc3ccc(F)cc3)n12
57. O=S(=O)(c1ccc(N2CCOCC2)cc1)N1CCOCC1
58. COc1ccc(C2(C(F)(F)F)NC(=O)C3=C(CC(C)(C)CC3=O)O2)cc1 (stereo not given)
59. O=C(O)/C=C/C(=O)N1CCCN(c2ncccc2C(F)(F)F)CC1
60. COc1cc(OC)c(/C=C2\C(=O)NC(=O)N(c3ccc(C)cc3)C2=O)cc1Br
compound no.,56,57,58,59,60
GIV Gai3 FP,105.7,101.1,/,106.0,109.3
HCMV UL50-53 inh,-20.2,-10.2,18.4,/,-13.5
Sa growth inh,1.2*,103.8,99.7,96.7,/
Sa growth inh second temp,1.1*,98.4,103.3,97.0,/

Reprinted from the part before: three entries, followed by the next part.
58. COc1ccc(C2(C(F)(F)F)NC(=O)C3=C(CC(C)(C)CC3=O)O2)cc1 (stereo not given)
59. O=C(O)/C=C/C(=O)N1CCCN(c2ncccc2C(F)(F)F)CC1
60. COc1cc(OC)c(/C=C2\C(=O)NC(=O)N(c3ccc(C)cc3)C2=O)cc1Br
61. COc1cc(Cl)c(C)cc1NC(=O)c1cnc(N2CCCCC2)c2ccccc12
62. CCOc1ccccc1Nc1c2c(nc3ncnn13)CCC2
63. O=C(CN1CCC(C(=O)c2ccccc2)CC1)NCc1cccs1
64. Cc1cccc(N(C(=O)c2csnn2)C(C(=O)NC2CCCCC2)c2ccco2)c1 (stereo not given)
65. O=C(O)CNC(=O)c1ccc(F)cc1
compound no.,58,59,60,61,62,63,64,65
GIV Gai3 FP,/,106.0,109.3,109.0,110.1,106.2,98.5,/
HCMV UL50-53 inh,18.4,/,-13.5,/,-7.3,5.3,-14.5,-28.4
Sa growth inh,99.7,96.7,/,94.6,/,103.2,125.6,96.9
Sa growth inh second temp,103.3,97.0,/,105.6,/,93.4,81.9,88.5

66. Oc1ccc(Cl)cc1-c1csnn1
67. COc1ccccc1OCCSc1nc(-c2ccc(C(C)(C)C)cc2)nc2cc(=O)[nH]n12
68. COc1ccc(CNC(=O)c2ccc3c(=O)nc4c(-c5ccccc5)n[nH]n4c3c2)cc1
69. CNC(=O)NNc1nccc(-c2cccnc2)n1
70. CC(=O)Nc1ccc(N(C)S(=O)(=O)c2ccc(C)cc2)cc1
compound no.,66,67,68,69,70
GIV Gai3 FP,102.1,98.9,108.6,111.3,/
HCMV UL50-53 inh,-30.5,/,-109.1,-3.3,-15.6
Sa growth inh,36.1,95.1,/,99.7,100.0
Sa growth inh second temp,16.0,78.2,/,99.5,89.5

71. COc1ccc(C(CNC(=O)Cc2cccs2)N(C)C)cc1 (stereo not given)
72. O=C(CC1SC(=NC2CC3C=CC2C3)NC1=O)Nc1ccc(Cl)cc1 (stereo not given)
73. CC(C)NC(=O)CN1C(=O)c2cccc3cccc1c23
74. COc1cc(S(=O)(=O)N2CCCc3ccccc32)c(OC)cc1C
75. Cc1ccc(S(=O)(=O)N(Cc2nc3nc(C)cc(C)n3n2)c2ccccc2)cc1
compound no.,71,72,73,74,75
GIV Gai3 FP,/,106.0,103.3,110.4,105.4
HCMV UL50-53 inh,0.8,-29.9,-59.5,8.7,-13.5
Sa growth inh,103.7,86.8,94.0,112.8,/
Sa growth inh second temp,89.3,60.0,84.9,111.0,/

Filtered by structure, those above with a CF3 group
48. O=C(Nc1ccccc1C(F)(F)F)N1CCOc2ccc(Cl)cc21
58. COc1ccc(C2(C(F)(F)F)NC(=O)C3=C(CC(C)(C)CC3=O)O2)cc1 (stereo not given)
59. O=C(O)/C=C/C(=O)N1CCCN(c2ncccc2C(F)(F)F)CC1
compound no.,48,58,59
GIV Gai3 FP,104.2,/,106.0
HCMV UL50-53 inh,-3.3,18.4,/
Sa growth inh,88.5,99.7,96.7
Sa growth inh second temp,90.8,103.3,97.0

Remaining list, next part
76. O=C1N=C2C=CC=CN2C(=O)C1Cc1ccccc1 (stereo not given)
77. O=C(OCc1cn2cc(Cl)ccc2n1)C1COc2ccccc2O1 (stereo not given)
78. COc1ccc(N(Cc2ccccc2)C(=O)c2nc(S(C)(=O)=O)ncc2Cl)cc1
79. CCc1ccc(/C=C(/C#N)C(=O)OC)s1
80. CCOCCCNC(=O)C1CCCN(Cc2nc(-c3ccc(CC)cc3)oc2C)C1 (stereo not given)
compound no.,76,77,78,79,80
GIV Gai3 FP,98.7,/,103.1,102.1,101.7
HCMV UL50-53 inh,-43.0,-2.5,-11.1,-86.3,-26.0
Sa growth inh,130.8,92.6,39.4,111.4,113.1
Sa growth inh second temp,79.2,99.6,18.8,97.5,91.9

81. C=CCN(C(=O)Cc1nc(-c2ccc(OC)cc2)no1)c1ccccc1
82. COC(=O)c1cc2oc(C)cc2n1CC(=O)Nc1ccc(OC)c(OC)c1
83. CCc1ccc(NC(=O)N2CCC(n3c(C)nc4cc(C(=O)N5CCCC5)ccc43)CC2)cc1
84. O=C(NCCO)c1ccc2c(c1)OCCOCCOCCO2
85. CCOc1cc(N2CCOCC2)c(OCC)cc1NC(=O)CSc1ncccn1
86. Cc1nc2ccccc2c(=O)n1NC(=O)/C=C/c1ccccc1
87. O=C(CCCCCn1c(=O)c2sccc2n(CC(=O)Nc2ccccc2F)c1=O)NCc1ccc2c(c1)OCO2
88. CCc1ccc(-n2c(=O)c3c4c(sc3n(CC(=O)NC(C)CC)c2=O)CCCC4)cc1 (stereo not given)
compound no.,81,82,83,84,85,86,87,88
GIV Gai3 FP,103.8,109.6,107.2,/,/,98.3,104.4,105.0
HCMV UL50-53 inh,-26.2,-12.4,11.2,11.5,-27.4,/,9.4,-17.8
Sa growth inh,107.5,/,/,97.5,98.9,84.8,105.4,94.9
Sa growth inh second temp,94.1,/,/,95.6,95.6,80.6,91.0,97.5

Compound activity from PubChem BioAssay.
